# Vaccinia Venus: inhibitors of vaccinia virus (Venus reporter) | Vaccinia virus Venus reporter expression, fluorescence | Potency, µM (titrated, usually from 36.5 µM), without a hit: top-dose activity change, negative = inhibition, actives largely listed as inhibitors | hit rate 0.46% among 330,000 | AID 720580; active means well fitted inhibition curve with a large enough effect; inconclusive means small, poorly fitted or top-dose-only effect; inactive means no such curve, though single readings can be large or run the other way; tested in A549 cells; also: nearly all actives have a fitted effect of over 30% in size; inactives centre near -10
# Vaccinia mCherry: inhibitors of vaccinia virus infection (mCherry reporter signal); Potency, µM (titrated, usually from 36.5 µM), inactives show at the highest dose activity change, negative = inhibition, hits mostly inhibitors; Vaccinia virus mCherry reporter infection, fluorescence; about a quarter of the inactives have no number; hit rate 0.63% among 310,000; active = well fitted inhibition curve with a large enough effect; inconclusive = small, poorly fitted or top-dose-only effect; inactive = no such curve, though single readings can be large or run the other way; tested in A549 cells; also: nearly all actives have a fitted effect of over 35% in size; inactives centre near -10
# An asterisk follows results filed as active; i = inactive; u = inconclusive; x = no result given; & = joins results of further samples; [ ] = another dose, or the depositor's remark. % is scaled to controls: 0 for no effect and ±100 for the full control effect; potency is read from the fitted curve at half-maximal effect.
SMILES,Vaccinia Venus,Vaccinia mCherry
O=C(NCC(=O)N(c1ccc(Cl)cc1)C(C(=O)NC1CCCC1)c1cccnc1)c1ccco1 (centres undefined),-4%,i
CC(C)(C)c1cc(NC(=O)C2(C)CCN2C(=O)C2(c3ccccc3)CC2)no1 (centres undefined),-8%,i
CCc1cccc(C)c1NC(=O)CN1C(=O)NC(Cc2ccccc2)C1=O (centres undefined),0%,i
COc1ccc(C(c2c(NC(C)=O)sc3c2CCCC3)N2CCN(CCO)CC2)cc1OC (centres undefined),-15%,i
Cc1ncc(CN2CCCC(C(=O)c3sccc3C)C2)s1 (centres undefined),-3%,-2%
COc1cccc(CN2CCN(Cc3cccc4nonc34)CC2CCO)c1 (centres undefined),-8%,-19%
CN(C)S(=O)(=O)c1cccc(NC(=O)CC23CC4CC(CC(C4)C2)C3)c1,-3%,-8%
FC(F)(F)c1ccc2c(c1)N1CCCC1CN2 (centres undefined),12%,22%
Cc1oc(-c2cccs2)nc1CSCC(=O)N1CCC2(CC1)OCCO2,-11%,-13%
COC(=O)c1[nH]c2cc(OC)ccc2c1NC(=O)CN1CCC(C(N)=O)(N2CCCCC2)CC1,u,x
COCCNC(=S)N1CCC(Cc2ccccc2)CC1,-27%,-13%
CC(=O)NNC(=S)Nc1cccc(F)c1,-10%,-16%
COc1cc(/C=N/Nc2ccccc2)ccc1O,-12%,-17%
O=C(NCc1cn2ccsc2n1)c1cccs1,-1%,i
Cn1cc(C(=O)OCC(=O)NC2(C#N)CCCCC2)c2ccccc21,-15%,-16%
Cc1nn(-c2ccccc2)c2c1N(CC(=O)N1CCN(c3ccc(Cl)cc3)CC1)C(=O)CS2,-9%,-1%
CCCOc1ccc(C(=O)NCC(c2cccs2)N(C)C)cc1OC (centres undefined),-21%,25%
COc1cc(N)c(Cl)cc1Cl,-6%,-10%
O=C1N[C@H](Cc2ccccc2)C(=O)N2[C@@H]3[C@H](C[C@@H]12)c1ccccc1N3OOSc1ccccc1,-29%,-14%
CCOc1ccc(N(CC)S(=O)(=O)N2CCCC(C(=O)Nc3ccc(NC(C)=O)cc3)C2)cc1 (centres undefined),-11%,-12%
CCOc1ccc(CN2CCNC(=O)C2CC(=O)NCc2cc(C)n(C)n2)cc1 (centres undefined),-2%,i
CCCCN(C(=O)COC(=O)C1(c2ccccc2)CC1)c1c(N)n(CCC)c(=O)[nH]c1=O,-9%,i
COCCn1cnc2c1c(=O)n(CC#N)c(=O)n2Cc1ccccc1,-10%,-17%
COCCN(C(=O)COC(=O)Cc1ccc(Cl)cc1)c1c(N)n(Cc2ccccc2)c(=O)[nH]c1=O,-7%,i
Cc1ccc(NC(=O)CC2(CC(=O)O)CCCC2)c(C)c1,-13%,i
O=C1CCC(=O)N1c1ccccc1,-5%,i
O=C(Nc1ccc(O)cc1)c1ccc(NC(=O)c2ccco2)cc1,-9%,-11%
Cc1cc(C)c2c(N)c(C(=O)N/N=C/c3cccnc3)sc2n1,-19%,i
COc1ccc(CN(CC2CCC(C(=O)O)CC2)C(=S)Nc2ccccc2C)cc1 (centres undefined),-2%,-4%
CCC(C)(C)c1ccc(O)cc1,-10%,i
CCO[C@@H]1OC(C(=O)N2CCOCC2)=C[C@H](c2ccc(C(F)(F)F)cc2)[C@H]1CCCO,-13%,-2%
CC(=O)c1ccc(C)cc1OC(=O)c1cccc(F)c1,-1%,-16%
COc1cccc(CC(=O)N2CCCC(CCC(=O)N3CCN(c4ccccn4)CC3)C2)c1 (centres undefined),-6%,-1%
COc1ccc(S(=O)(=O)N2CCCC2)cc1NC(=O)c1ccccc1,8%,i
COc1ccc(/C=N/Nc2nc(C)nc(N)n2)cc1,-19%,-23%
Cn1ccnc1COc1ccc(/C=N/O)cc1,-3%,-7%
Fc1cccc(-c2ncc(-c3ccccc3)o2)c1,-3%,i
O=C(CCNS(=O)(=O)c1ccccc1)N1CCCC1,-9%,i
O=C(Nc1ccc(Cl)cc1C(=O)c1ccccc1)c1ccccc1Br,-4%,-6%
CCCCOc1ccc(C(=O)N2CCC(C)CC2)cc1,-13%,x
CCOc1ccc(S(=O)(=O)Nc2ccc(O)c(Sc3ncn[nH]3)c2)cc1,-8%,-14%
CCCCc1ccc(NC(=O)C(C)CC)cc1 (centres undefined),-18%,i
O=C(Nc1cccc(Cl)c1)N1C[C@H]2C[C@@H](C1)c1cccc(=O)n1C2,5%,-3%
CC1(C)C(c2cccs2)=[N+]([O-])C2(CCCCC2=O)N1O (centres undefined),3%,-20%
CCOC(=O)c1ccc(Nc2nn3c(=O)c4ccccc4nc3s2)cc1,-5%[7.34 µM],-13%[7.34 µM]
NC(=S)N/N=C/c1ccc2ccccc2c1,1µM*,0.35µM*
O=C(CSc1ccc2nnc(-c3cccs3)n2n1)N1CCCC1,-7%,-7%
Fc1ccc(-c2csc(N3CCC(c4ccccc4)C3)n2)cc1 (centres undefined),-21%,-4%[1.46 µM]
CC1(Cc2ccc(F)c(Cl)c2)C(=O)Nc2c(Cl)cccc21 (centres undefined),0%,i
CCN1CCN(CC(O)COc2cccc(OC)c2)CC1 (centres undefined),-5%,x
# The listing continues:
SMILES,Vaccinia Venus,Vaccinia mCherry
Cc1ccc2c(c1)nc(NCCCO)n2C,-12%,x
CCCn1c(SCC(=O)NC23CC4CC(CC(C4)C2)C3)n[nH]c1=O,-2%,i
O=C(Cc1ccccc1[N+](=O)[O-])NCCC1=CCCCC1,-15%,-10%
CCOC(=O)C1=C(C(F)(F)F)Nc2ncnn2C1c1cc(OC)c(OC)cc1OC (centres undefined),-11%,-7%
O=C(NCC1CCCO1)c1ccc2c(c1)N(Cc1ccc(Cl)cc1)CCS2 (centres undefined),-1%,-12%
S=C(NCCc1ccccc1)NCCN1CCOCC1,2%,i
Cc1nc2ccc(NC(=O)Cc3cccs3)cc2s1,-13%,i
COc1cc(OC)c(N(C)C(=O)c2cc3c(s2)-c2ccccc2S(=O)(=O)C3)cc1Cl,-9%,i
CNC(=O)COc1ccc(S(=O)(=O)Nc2ccccc2)cc1,-2%,i
CC(=O)c1nnn(-c2ccc([N+](=O)[O-])cc2C)c1C,-4%,1%
Cc1ccc(C)c(S(=O)(=O)ON2C(=O)c3ccccc3C2=O)c1,-12%,-2%
O=C(NNC(=O)c1ccccc1Cl)c1ccncc1,-20%,-8%
CC1=CC(C)C2COC(c3ccc[n+](C)c3)C1C2C (centres undefined),-1%,-13%
CCOC(=O)C(CC)/C(C)=N\NC(=O)CCC(=O)Nc1ccc(Cl)cc1Cl (centres undefined),-11%,-29%
Cc1nc(-c2ccc(F)cc2)sc1CCNC(=O)c1cccs1,-4%,0%
CCCc1cc(C(=O)OC)c(NC(=O)CCC(=O)O)s1,1%,-9%
O=C(NC(=S)Nc1ccccc1N1CCOCC1)c1cccs1,-6%,i
Cc1ccc(CN2CCN(CCCn3cccn3)CC2CCO)cc1 (centres undefined),-11%,-12%
Cc1nn(-c2ccc(C(=O)Nc3nnc(C4CC4)s3)cc2)c(C)c1Cl,-22%,x
Cc1ccc(NS(=O)(=O)c2ccc(OCC(=O)NCc3ccccn3)cc2)cc1,-18%,i

# 12 compounds out of the list, sorted by length of the SMILES, descending.
SMILES,Vaccinia Venus,Vaccinia mCherry
COc1cc(OC)c(N(C)C(=O)c2cc3c(s2)-c2ccccc2S(=O)(=O)C3)cc1Cl,-9%,i
CCOC(=O)C1=C(C(F)(F)F)Nc2ncnn2C1c1cc(OC)c(OC)cc1OC (centres undefined),-11%,-7%
CCOC(=O)C(CC)/C(C)=N\NC(=O)CCC(=O)Nc1ccc(Cl)cc1Cl (centres undefined),-11%,-29%
Cc1ccc(NS(=O)(=O)c2ccc(OCC(=O)NCc3ccccn3)cc2)cc1,-18%,i
Cc1nn(-c2ccc(C(=O)Nc3nnc(C4CC4)s3)cc2)c(C)c1Cl,-22%,x
O=C(NCC1CCCO1)c1ccc2c(c1)N(Cc1ccc(Cl)cc1)CCS2 (centres undefined),-1%,-12%
Cc1ccc(C)c(S(=O)(=O)ON2C(=O)c3ccccc3C2=O)c1,-12%,-2%
CC(=O)c1nnn(-c2ccc([N+](=O)[O-])cc2C)c1C,-4%,1%
Cc1nc(-c2ccc(F)cc2)sc1CCNC(=O)c1cccs1,-4%,0%
Cc1ccc(CN2CCN(CCCn3cccn3)CC2CCO)cc1 (centres undefined),-11%,-12%
Cc1nc2ccc(NC(=O)Cc3cccs3)cc2s1,-13%,i
S=C(NCCc1ccccc1)NCCN1CCOCC1,2%,i

# Next section:
SMILES,Vaccinia Venus,Vaccinia mCherry
COc1ccc(Cl)cc1CC1(C)C(=O)Nc2c(Cl)cccc21 (centres undefined),-7%,i
COc1ccc(C(=O)NC(Cn2ccnc2)C(C)(C)C)cc1OC1CCN(C(C)C)CC1 (centres undefined),-13%,-11%
CC(C)(C)C(=O)NC1CC2CCCC(C1)N2C(=O)Nc1ccccc1 (centres undefined),-4%,-11%
COc1ccc(OC)c(NC(=O)Cc2cccs2)c1,-12%,i
O=C(Nc1ccc(OC(F)(F)F)cc1)c1noc2c1CCCC2,-5%,-9%
Oc1c(C(c2ccccc2)N2CCCC2)sc2nc(-c3ccco3)nn12 (centres undefined),-15%,-22%
Cc1sc2nc(CN3CCOCC3)nc(NCCc3ccccc3)c2c1C,-15%,1%
O=C(N/N=C/c1ccc[nH]1)c1sc2ccccc2c1Cl,58%[activator],-10%
Cc1cccc(N2CCN(C(=O)c3noc4c3COc3ccc(C)cc3-4)CC2C)c1 (centres undefined),-5%&1%,9%
O=C(CSc1ccccc1)NCc1ccco1,-7%,x
CN1C(=O)N(c2nnc(C(C)(C)C)s2)C(=O)C1c1ccccc1 (centres undefined),-4%,-17%
CCN1CCN(C(=O)N(CC(=O)Nc2ccc(C(N)=O)cc2)S(=O)(=O)c2ccc(C)cc2)CC1,3%,-3%
COc1ccc(C(=O)OCC(=O)NCC2CCCCC2)cc1S(=O)(=O)N1CCCc2ccccc21,-20%,-1%
CSc1nsc(SCC(=O)N2CCCCC2)n1,-10%,-25%
CCOc1ccc(C(CC(=O)O)NC(=O)c2cccs2)cc1OC (centres undefined),-2%,1%
Cc1cc2c(c(=O)o1)C1(C(=O)N(CC(=O)O)c3ccccc31)C(C#N)=C(N)O2 (centres undefined),6%,-10%
Cc1ccc(N(CC(=O)O)S(=O)(=O)c2cccc3nonc23)cc1,-22%,x
CCn1c(C(C)NC(=O)c2cccs2)nc2ccccc21 (centres undefined),3%,-7%
N#Cc1ccccc1S(=O)(=O)N1CCN(CC(O)c2ccccc2)CC1 (centres undefined),-5%,i
CC(=O)Nc1ccc(CN2C(=O)C(C)(C)ON=C2c2ccc(C(F)(F)F)cc2)cc1,0%,8%
O=C(Nc1cccc(F)c1)c1cccc(S(=O)(=O)N2CCOCC2)c1,-10%,i
CN(Cc1ccccc1)C(=O)c1[nH]cnc1C(=O)Nc1ccccc1F,-12%,i
Cc1ccsc1/C=N\NC(=O)CCc1c(C)n[nH]c1C,-7%,-23%
COc1ccc(C)cc1NC(=O)C(CCS(C)(=O)=O)NC(C)=O (centres undefined),-11%,-13%
CCC(C(=O)NCCC(C)C)n1ccc2cc(S(=O)(=O)N3CCCCC3)ccc21 (centres undefined),0%[7.34 µM],i[7.34 µM]
COc1ccccc1OCC(=O)Nc1cccc(-c2nnc(-c3ccco3)o2)c1,-15%,-11%
CCOC(=O)c1c(C)nc(C)c(C(=O)OCC)c1-c1cccc([N+](=O)[O-])c1,-13%,-2%
Cc1cc(C)c2c(CC(=O)O)c(C)[nH]c2c1,-7%,-6%
Cc1cc(C)nc(NC(=S)NC(=O)c2ccccc2)n1,-4%,-9%
CCn1c(CNc2nc3ccccc3n2C(C)C)nc2ccccc21,-24%,-21%

# Record cards (already shown). Values in the order: Vaccinia Venus, Vaccinia mCherry
# Profile of `Oc1c(C(c2ccccc2)N2CCCC2)sc2nc(-c3ccco3)nn12` (centres undefined) → -15%, -22%
# Profile of `O=C(NCc1cn2ccsc2n1)c1cccs1` → -1%, i
# Profile of `Cn1cc(C(=O)OCC(=O)NC2(C#N)CCCCC2)c2ccccc21` → -15%, -16%

# Going on with the list.
SMILES,Vaccinia Venus,Vaccinia mCherry
CC(C)Oc1ccccc1NC(=O)CSc1nccn1C,-9%&2%,-12%
CCc1nnc(NC(=O)C2CCCN2C(=O)Nc2ccc(C)cc2)s1 (centres undefined),14%,-18%
Cc1ccc2nc3sc(C(=O)Nc4ccc(F)cc4)cc3cc2c1,-7%&6%,-11%&36%
COc1ccc(C2=NCCn3nc4cc(OC)ccc4c32)cc1,-26%,i
COc1ccc(CCNC2=CC(=O)CC(C)(C)C2)cc1,-21%,-2%
COc1ccc(-c2cccc(C(=O)Nc3ccc(OC)c(OC)c3)c2)cc1,-13%,-19%
O=C(O)c1ccc2c(c1)S(=O)(=O)c1cc(N3CCN(c4ncccn4)CC3)ccc1C2=O,-13%,-16%
C=CCOc1ccc(CNc2ccc3[nH]c(=O)[nH]c3c2)cc1OC,3%,-13%
O=C(NC1CCOCC1)C1CCC(=O)N(Cc2cccc(C(F)(F)F)c2)C1 (centres undefined),-10%[7.34 µM],i[7.34 µM]
C[C@@H]1CN([C@H](C)CO)C(=O)CCCn2nncc2CO[C@H]1CN(C)C(=O)Cc1ccccc1,-11%,i
CCOC(=O)C1CCN(C(C)=C2C(=O)c3ccccc3C2=O)CC1,-10%,-12%
Cc1cc(C)c(S(=O)(=O)Nc2cc(C)on2)c(C)c1,-3%,i
Cc1nnc2c3ccccc3nc(Nc3cccc(O)c3)n12,-13%,-11%
CCN(CC)S(=O)(=O)c1ccc(-c2cc(C(=O)OC)sc2C(F)(F)F)cc1,-6%,-14%

# Compound activity deposited in PubChem BioAssay by National Center for Advancing Translational Sciences (NCATS).
